UUG fidelity: alters start codon recognition fidelity in yeast; S. cerevisiae UUG-firefly luciferase reporter, luminescence/redox ratio; activity score, % at 18.7 µM; hit rate 0.13% among 350,000;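 active = replicate mean at a twofold rise or more, about +100% in these data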;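 also: firefly luciferase made from a UUG start codon reports start codon fidelity; reporter light over untreated wells divided by growth signal over untreated wells; some hits fall short of that in this replicate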
CSC inhib: cancer stem cell inhibition; cancer stem cell-like cells viability, luminescence; inhibition, % at 7.5 µM; hit rate 1.1% among 300,000;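 active = mean at 75% or more and at least half the replicates too; inconclusive = mean and replicates disagree; tested in HMLE shEcad cells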;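 also: 0% = median of negative and 100% = median of positive control wells; the first replicate is given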
HIV Env fusion: inhibitors of HIV Env-mediated cell fusion; inhibition, % at 12.3 µM; hit rate 1.1% among 360,000; HeLa-JRFL Env/CEM21 cell fusion, luciferase;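 active = mean replicate inhibition score of at least 50 and every replicate individually at or above 50; inconclusive = only one of the two criteria met; inactive = mean below 50 and not all replicates reaching 50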;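 also: 0% = plate neutral controls and 100% = maraviroc near 300 nM; one replicate is shown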
Rce1 inhib: yeast Ras-converting enzyme inhibition | yeast membranes, quenched prenylated peptide cleavage fluorescence | calls only | hit rate 0.27% among 290,000 | AID 2563;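 active = fall in fluorescence gain of 50% or more versus controls, with final raw signal at or below 3038400; inconclusive = same 50% fall but final raw signal above 3038400; inactive = fall in fluorescence gain under 50%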;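 also: plate controls were neutral control wells for no effect and wells lacking membranes for full effect; tested at 10 µM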
PABP polyA inh: blocks human PABP binding to poly(A) RNA; P11940; fluorescence polarization; inhibition, % at 35 µM; hit rate 1% among 290,000; AID 2014;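 active = 50% or more with normal probe brightness, or confirmed in later tests; inconclusive = above 50% with abnormal brightness, or retests that disagree; inactive = below 50% or failed in later tests; about a fifth of its hits are not listed in these tables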;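 also: calls also rest on retests at 20 µM and on dose response follow-up; controls were probe without protein and protein plus probe with vehicle; some compounds called inactive have numbers as strong as hits; many hits fall short of the cut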
Target sequence (P11940 whole entry, looked up): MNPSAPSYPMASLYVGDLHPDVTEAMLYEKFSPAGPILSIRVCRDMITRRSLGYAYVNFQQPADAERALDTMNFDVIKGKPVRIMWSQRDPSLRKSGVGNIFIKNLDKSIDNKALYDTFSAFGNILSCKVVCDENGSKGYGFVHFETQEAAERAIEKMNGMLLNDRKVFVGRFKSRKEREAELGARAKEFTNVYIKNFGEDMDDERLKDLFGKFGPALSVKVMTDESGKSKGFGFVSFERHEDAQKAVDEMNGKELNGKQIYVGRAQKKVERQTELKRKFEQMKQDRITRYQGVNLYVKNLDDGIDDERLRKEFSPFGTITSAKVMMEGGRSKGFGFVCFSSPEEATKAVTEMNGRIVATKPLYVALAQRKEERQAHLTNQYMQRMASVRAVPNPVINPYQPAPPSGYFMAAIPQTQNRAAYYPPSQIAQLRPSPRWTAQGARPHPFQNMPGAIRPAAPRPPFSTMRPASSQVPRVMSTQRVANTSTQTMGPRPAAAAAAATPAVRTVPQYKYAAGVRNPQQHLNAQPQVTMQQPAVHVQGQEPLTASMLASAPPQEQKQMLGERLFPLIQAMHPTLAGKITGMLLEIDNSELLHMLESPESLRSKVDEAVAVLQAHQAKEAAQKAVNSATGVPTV
MT1-MMP act inh: blocks activation of human MT1-MMP. HT1080 RFP-PRO-GFP cells, GFP/RFP ratio fluorescence, overnight; percent of plate control window, DMSO zero. GFP/RFP ratio change, % at 20 µM. hit rate 0.061% among 360,000. AID 651647;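 active = GFP/RFP ratio change of at least 30% with cell ATP level not reduced by more than half and red fluorescence within 50% of control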; also: strong numbers were not always called active
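Compound: 20 µM single dose, 1% DMSO / System: HT1080 RFP-PRO-GFP cells / Controls: DMSO and RFP-L50D-GFP cell wells / Read-out basis: GFP/RFP fluorescence ratio / Schedule: overnight compound exposure at 37 °C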
eIF4H inh: inhibitors of RNA binding by human eIF4H | eIF4H fluorescence polarization binding assay | inhibition, % at 35 µM | hit rate 0.94% among 290,000 | AID 2012;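 active = 50% or more with normal probe brightness, or confirmed in later tests; inconclusive = above 50% with abnormal brightness, or retests that disagree; inactive = below 50% or failed in later tests; about a fifth of its hits are not listed in these tables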;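 also: calls also rest on retests at 20 µM and on dose response follow-up; 0% = protein and probe with vehicle and 100% = probe without protein; strong numbers were not always called active; many hits fall short of the cut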
eIF4H inh retest: further read-out of eIF4H inh, marked with its call; inhibition, %; compound at 20 µM; confirmation average;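 mean of two retest wells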
PABP polyA inh retest: further read-out of PABP polyA inh, marked with its call; inhibition, %; compound at 20 µM; confirmation repeats;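 mean of two retest wells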
MT1-MMP act inh RFP: also measured in MT1-MMP act inh; calls as there; RFP signal change, %; measured here: RFP expression control read;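 0 = vehicle wells; hits needed this value within 50% of zero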
An asterisk follows results filed as active; i = inactive; ? = inconclusive; · = not tested or not shown; + = active, no number. Some of the compounds tested (hit frequency here may not be typical).

SMILES	UUG fidelity	CSC inhib	HIV Env fusion	Rce1 inhib	PABP polyA inh	MT1-MMP act inh	MT1-MMP act inh RFP	eIF4H inh	others
CN(C)/C=C1\C(=O)N(c2ccc(Oc3ccccc3)cc2)CS1=O (configuration not stated)	-15	-15	-5	i	4	2	1	0
CCN(CC)C(CNC(=O)c1cc(=O)[nH]c2ccccc12)c1ccccc1Cl (configuration not stated)	-7	-3	20	i	2	0	6	4
CCOc1ccc(N2C(=O)CN=C2Nc2ccccc2Cl)cc1	-7	-5	·	i	-9	0	1	-4
COCCCNc1oc(COc2ccc(Cl)cc2Cl)nc1C#N	-1	3	·	i	8	-2	-6	-1
CCCCN(Cc1ccccc1)C(=O)C1CCCN(S(=O)(=O)c2cnc[nH]2)C1 (configuration not stated)	3	13	-50	i	-8	-4	1	-12
O=C(NCC(c1ccco1)N1CCc2ccccc2C1)c1ccccc1Cl (configuration not stated)	-18	4	-22	i	·	-1	2	·
CCOc1c(O)ccc(/C=C2\SC(=S)NC2=O)c1[N+](=O)[O-]	·	6	10	i	23	4	-7	52	eIF4H inh retest=4;PABP polyA inh retest=0
COc1cccc(CN2CCNC(=O)C2CC(=O)N2CCOc3ccccc3C2)c1OC (configuration not stated)	·	-12	2	i	-9	1	1	-2
Cc1ccc(C(=O)OCC(=O)Nc2cc(C(C)(C)C)no2)c(C)c1	12	·	-15	·	·	0	-2	·
O=C(CC(c1ccccc1)c1cc(Cl)ccc1O)NCCN1CCOCC1 (configuration not stated)	·	-26	14	i	4	0	3	-2
Cn1c(N/N=C/c2c[nH]c3ccccc23)nc2ccccc21	-20	-16	-371	i	-13	10	-6	19
Cn1c(=O)[nH]c(=O)c2c1nc(N1CCOCC1)n2CC(O)COc1ccccc1 (configuration not stated)	·	4	·	i	4	3	9	-4
COc1ccc(/C=N/NC(=O)c2[nH]c3ccc(Br)cc3c2-c2ccccc2)cc1	·	55	-115	i	-12	12	-7	-14
Cc1nnc(SCC(=O)NC(=O)Nc2ccc3c(c2)OCCO3)n1N	·	0	-10	i	11	-1	1	0
NC(=S)N/N=C/c1coc2cc(Br)ccc2c1=O	·	-20	12	i	1	-5	-2	-12
COCCNC(=O)CCc1nc2cccnc2n1Cc1ccc(OC)cc1	-18	1	25	i	-5	1	2	-17
Cc1[nH]c2ccccc2c1/C=N/NC(=O)c1cc(-c2ccncc2)nc2ccccc12	-4	-3	20	i	3	-9	-12	1
CC1CCN(C(=O)c2cc3ccccc3o2)CC1	-3	·	·	i	2	1	-5	-1
O=C(CCN1C(=O)c2cccc3cccc(c23)C1=O)NCc1ccco1	·	-12	2	i	7	-1	2	10
COc1cccc(OCc2cc(C(=O)N(C)CCC3CCCCO3)no2)c1 (configuration not stated)	-7	8	·	i	4	3	-3	0
O=Cc1ccc([B-](F)(F)F)s1	-20	·	16	·	·	-3	1	·
Cc1cccc(OCCCn2c(CCNC(=O)C(C)C)nc3ccccc32)c1	-7	-6	·	i	-57	1	-3	3
O=C(/C=C/c1ccc(Cl)cc1)NCCCN1CCOCC1	-11	-19	-41	i	2	-1	-1	7
CCC(=O)Nc1ccc(NC(=S)Nc2ccccc2)cc1	-28	-11	2	i	2	2	4	0
CCn1c(SCC(=O)Nc2ccc3[nH]c(=O)[nH]c3c2)nc2ccccc21	2	-15	-12	·	·	-6	3	·
COc1ccc(/C=N/NC(=O)CCN2CCCCC2c2cccnc2)cc1Cn1cc([N+](=O)[O-])cn1 (configuration not stated)	·	-1	-1	i	-8	1	-4	-4
CCn1c(C)nc2cc(S(=O)(=O)C(F)(F)C(F)C(F)(F)F)ccc21 (configuration not stated)	·	·	·	i	-12	-3	-15	-5
COC(=O)c1c(C)[nH]c(C(=O)C(C)OC(=O)c2cc(C)oc2C)c1C (configuration not stated)	-3	·	15	·	·	-10	-26	·
Cc1ccc(S(=O)(=O)N2C[C@H]3C(=O)C[C@@H](c4ccccc4)N(S(=O)(=O)c4cccc(C)c4)[C@H]3C[C@H]2c2ccccc2)cc1	-8	·	-3	·	·	-2	-2	·
COc1c2c(cc3oc(C)cc(=O)c13)OC(C(C)(C)OC1OC(CO)C(O)C(O)C1O)C2 (configuration not stated)	-26	-6	-28	i	7	0	2	2
CCOc1ccc(NC(=O)c2ccc(CSc3nnnn3C)cc2)cc1	-4	-1	·	i	-8	4	-10	0
CCn1c(O)c(C#N)c(C)cc1=O	-10	-4	3	i	46	-2	-1	78*	eIF4H inh retest=74*;PABP polyA inh retest=26
COc1ccc(-c2cc3nc[nH]c(=O)c3s2)cc1	-36	3	-91	i	-1	6	-1	1
Cc1ccsc1/C=N/NC(=O)c1sccc1C	-17	-12	·	i	-3	0	3	8
O=C(CCSc1nc2cc(Cl)ccc2o1)N1CCOCC1	-14	-22	5	i	-6	-4	-3	-10
Cc1ccc2c(c1)C(=NC1CCCCC1)c1cc3ccccc3nc1-2	·	18	-2	i	0	3	3	14
Cc1cc(C)c(NC(=O)C2CCN(S(C)(=O)=O)CC2)c(C)c1	-10	·	3	·	·	-3	-3	·
CSc1nc(-c2ccccc2)nn1S(=O)(=O)c1ccccc1	-34	10	·	i	31	1	4	9
CCCN(CC1CCCO1)C(=O)c1cc(COc2cccc(OC)c2)on1 (configuration not stated)	-10	4	4	i	-4	3	1	0
CN(C)/C=C/C(=O)c1ccc(-n2cccc2)cc1	·	-21	-31	i	-14	2	3	-4
NC(=O)C1CCCN(C(=O)Nc2cccc3ccccc23)C1 (configuration not stated)	3	-3	·	·	10	1	5	-2
CCOC(=O)N1CCN(C(=O)CSCc2ccc(C)cc2)CC1	2	11	·	i	-2	3	-9	-5
O=C(NCC1CCCO1)c1ccc2[nH]c3c(c2c1)CCCC3 (configuration not stated)	-18	·	-25	·	·	1	0	·
C=C1CCC(C)C(C)(CCC2=CCOC2=O)C/C=C\C=C/1C(=O)O (configuration not stated)	6	8	·	i	12	0	3	10
N#CC1=C(N)OC2=C(C(=O)CCC2)[C@]12C(=O)N(CC(N)=O)c1ccccc12	-12	3	·	i	4	-11	0	-9
CC1(C)C(=O)NCCN1C(=O)CC1C(=O)NCCN1CC(c1ccccc1)c1ccccc1 (configuration not stated)	1	·	-15	i	20	-1	-1	-4
COC(=O)[C@H](CCSC)NC(=O)Nc1cccc(Br)c1	·	18	2	i	-2	-1	0	-6
CCNc1nc(NCC)n2c(SCC(=O)Nc3cccc(F)c3)nnc2n1	-18	-13	-5	i	·	2	1	·
C/C(=N\NC(=O)c1ccoc1C)c1cccc2ccccc12	-8	2	-75	i	7	0	-5	-4
O=C(NCC(=O)N1CCN(C(=O)c2ccccc2)CC1)c1ccc(Cl)cc1Cl	-4	·	9	·	·	3	-3	·
O=c1cc(/C=C/c2ccccc2)oc2c1ccc1ccccc12	-16	1	-11	i	0	-5	-8	-1
O=C(Cc1cccc2ccccc12)NCCc1ccccc1	-7	-4	9	i	4	1	2	8
COCCCN1C(=O)c2ccc(C(=O)Nc3ccccc3OC)cc2C1=O	-17	-11	?	i	-1	4	6	-7
Cc1ccc(NC(=O)CCCc2ccccc2)nc1	-12	-3	-12	i	6	7	2	5
CCN(CC(=O)NCc1ccc(F)cc1)C(=O)c1ccc(C)o1	-8	-1	14	i	11	0	3	4
Clc1c(-c2ccccc2)nc2ccccn12	-6	-3	-65	·	24	2	1	-4
CN1C(=O)/C(=C/c2cc(N=Nc3ccccc3)ccc2O)SC1=S	-27	+	·	i	11	151	83	-4
CC(C)N(CCNC(=O)COc1ccc2oc3c(c2c1)CCCC3)C(C)C	-18	8	34	i	6	-1	-2	-12
CCCCNC(=O)C1(C)CCN1C(=O)c1cncc(Br)c1 (configuration not stated)	-2	·	-1	·	·	0	2	·
COc1ccccc1C(=O)N/N=C(\C)CC(=O)Nc1ccc2c(c1)OCCO2	-11	-3	-4	i	8	-2	3	8

Part of the list above in order of length of the SMILES, ascending:
SMILES	UUG fidelity	CSC inhib	HIV Env fusion	Rce1 inhib	PABP polyA inh	MT1-MMP act inh	MT1-MMP act inh RFP	eIF4H inh	others
NC(=O)C1CCCN(C(=O)Nc2cccc3ccccc23)C1 (configuration not stated)	3	-3	·	·	10	1	5	-2
CCNc1nc(NCC)n2c(SCC(=O)Nc3cccc(F)c3)nnc2n1	-18	-13	-5	i	·	2	1	·
C=C1CCC(C)C(C)(CCC2=CCOC2=O)C/C=C\C=C/1C(=O)O (configuration not stated)	6	8	·	i	12	0	3	10
COc1ccccc1C(=O)N/N=C(\C)CC(=O)Nc1ccc2c(c1)OCCO2	-11	-3	-4	i	8	-2	3	8

Next part
SMILES	UUG fidelity	CSC inhib	HIV Env fusion	Rce1 inhib	PABP polyA inh	MT1-MMP act inh	MT1-MMP act inh RFP	eIF4H inh	others
CCOC(=O)c1sc2nccc(N(C)C)c2c1N=CNOC	·	-1	·	i	14	-2	-3	-7
Cc1c(Cl)c(-c2n[nH]c(=S)n2Cc2ccco2)nn1C	-16	4	·	i	-3	1	4	-2
CSc1scc2c1-c1nc(SCC(=O)C(C)(C)C)ncc1CC2	·	23	6	·	6	0	-7	-6
C=CCn1c(=O)[nH]c(=O)c2c(N)c(C(=O)c3ccc(OC)cc3)sc21	-15	·	21	·	·	-8	-10	·
O=C(CSc1ncn(-c2ccccc2)n1)Nc1ccc2c(c1)OCO2	2	-1	-117	i	32	0	7	-6
Cc1nc2nc(-c3ccccc3)cn2nc1C	-14	20	·	i	-1	1	3	-7
CCC(C)Nc1nc(-c2ccccn2)nc2ccccc12 (configuration not stated)	-30	29	?	i	-20	18	-13	15
CCc1nc2ccc(C(=O)NCCN(C)C)cn2c1N(CC)CCOC	-17	·	0	·	·	-2	5	·
O=C1CC(NCc2ccccc2F)C(=O)N1c1ccccc1 (configuration not stated)	-19	-16	-40	i	-2	4	1	-2
CC(Oc1ccccc1)C(=O)Nc1ccccc1O (configuration not stated)	-13	-6	-37	i	4	-2	-4	-10
OC1CCCN(C(=S)Nc2ccc(SC(F)F)cc2)C1 (configuration not stated)	·	·	-36	i	1	0	2	8
O=C(Nc1ccc2c(c1)OCO2)C1CCCN1C(=O)NCc1ccccc1 (configuration not stated)	-18	-15	7	i	1	-4	-1	-2
CCCCn1c(N)c(N(Cc2ccccc2OC)C(=O)c2c(CC)noc2C)c(=O)[nH]c1=O	-11	·	2	i	-13	-2	0	-3
O=C(N/N=C/c1ccc2cccnc2c1)c1nc2ccccc2c(=O)[nH]1	-11	-1	-12	i	-16	7	5	0
COc1ccc(CCn2c3c(c(=O)[nH]c2=O)C(NC(=O)c2cccs2)(C(F)(F)F)C(=O)N3)cc1OC (configuration not stated)	-11	-12	-82	i	-7	-1	-1	-4
COc1cccc(NC(=O)CSc2nnc(-c3ccoc3C)n2CC2CCCO2)c1 (configuration not stated)	-20	·	-352	i	-11	2	3	4
O=C(CC(NCCN1CCOCC1)C(=O)O)Nc1cccc(Cl)c1 (configuration not stated)	-2	-3	-2	·	·	-8	-2	·
N#CCCN(Cc1cccnc1)S(=O)(=O)c1ccc(S(=O)(=O)N2CCCCCC2)cc1	-19	-8	·	i	4	-5	-4	-6
COc1cccc(-c2nnc(NC(=O)C(C)C)o2)c1	-12	-7	14	i	5	0	3	-5
O=C(COC(=O)C1CCCCC1)Nc1cccc(F)c1	-16	·	22	·	·	3	0	·
Cn1c(=O)c(=O)n(C)c2cc(S(=O)(=O)CCC(=O)N3CCOCC3)ccc21	-3	2	-15	i	-2	-1	5	-8

Screens (PubChem)
